# Bioassay records (PubChem)
# Vaccinia Venus = vaccinia inhibition (Venus reporter); Vaccinia virus Venus reporter expression, fluorescence; Potency, µM (titrated, usually from 36.5 µM), inactives show at the top dose activity change, negative = inhibition, usual class: inhibitors; 0.46% of 330,000 active; active means well fitted inhibition curve with a large enough effect; inconclusive means small, poorly fitted or top-dose-only effect; inactive means no such curve, though single readings can be large or run the other way; tested in A549 cells; also: nearly all actives have a fitted effect of over 30% in size; inactives centre near -10
# VACV mCherry inh = vaccinia inhibition (mCherry reporter). Potency, µM (highest dose often 36.5 µM), inactives show at the top dose activity change, negative = inhibition, hits mostly inhibitors. Vaccinia virus mCherry reporter infection, fluorescence; about a quarter of the inactives have no number. AID 720579. 0.63% of 310,000 active; active = well fitted inhibition curve with a large enough effect; inconclusive = small, poorly fitted or top-dose-only effect; inactive = no such curve, though single readings can be large or run the other way; tested in A549 cells; also: nearly all actives have a fitted effect of over 35% in size; inactives centre near -10
# Numbers without * were called inactive; i = inactive; ? = inconclusive; nt = not tested or not shown; [ ] = remark or other dose. % is scaled to controls: 0 for no effect and ±100 for the full control effect; potency is read from the fitted curve at half-maximal effect.
SMILES,Vaccinia Venus,VACV mCherry inh
CC1CCN(S(=O)(=O)c2ccc3nc(N4CCN(c5ccc(F)cc5)CC4)ccc3c2)CC1,-2%,-13%
O=C(Cc1n[nH]c(=O)c2ccccc12)NCc1ccc(Cl)cc1,-5%,-5%
Nc1nc(SCC(=O)Nc2ccc(Br)cc2Br)n[nH]1,-13%,-2%
Cc1cc(F)ccc1NCc1ccccc1-c1nnc(-c2ccccc2Cl)o1,-9%,-5%
N#Cc1nc(Cc2cccc3ccccc23)oc1N1CCC(C(N)=O)CC1,?,nt
CCOCCn1ccc2c(OCC(=O)Nc3cc(OC)ccc3OC)cccc2c1=O,-12%,-21%
C[C@H](NC(=O)c1ncn(Cc2ccccc2)c1C(=O)N[C@@H](C)c1ccccc1)c1ccccc1,-22%,-30%
CN1CC2CN(Cc3ccccc3)S(=O)(=O)C2C1 (configuration not stated),0%,i
COc1ccc(OC)c(S(=O)(=O)N2CCCc3ccccc32)c1,-7%,nt
CC(CNc1ccc([N+](=O)[O-])c2cccnc12)Nc1c([N+](=O)[O-])cc(C(F)(F)F)cc1[N+](=O)[O-] (configuration not stated),-19%,-14%
Cc1c(C)c2c(OCC(=O)N[C@@H](C)C(=O)O)cc3c(c2oc1=O)CCC(C)(C)O3,0%,-6%
O=C(NC(NC(=S)Nc1ccccc1O)C(Cl)(Cl)Cl)c1ccco1 (configuration not stated),-11%,-15%
Cc1ccc(N2CCN(c3ccc(C)cc3)C2c2cccnc2)cc1,-21%,-16%
CCCCC(CC)C(=O)Nc1cc(C(=O)NCCC)ccc1N1CCC2(CC1)CC(c1ccccc1)=NO2 (configuration not stated),-10%,-12%
COC(=O)C(c1ccccc1)C1(O)CC(C)N(C)CC1C (configuration not stated),-11%,-15%
O=C(/C=C/c1cccc([N+](=O)[O-])c1)NCCSCc1ccc(Cl)cc1,-16%,-9%
COc1ccc(C2NC(c3ccc(OC)c(OC)c3OC)C(C)C(=O)C2C)c(OC)c1OC (configuration not stated),-4%,-15%
c1ccc(CNc2nc(NCc3ccccc3)c3sccc3n2)cc1,-29%,-6%
CCC(C)NC(=O)C1CCCN(S(=O)(=O)c2ccc3c(c2)CC(C)N3C(=O)C2CC2)C1 (configuration not stated),?,i
C=CCn1c2ccccc2c2nnc(SCC(=O)OCN3C(=O)c4ccccc4C3=O)nc21,-29%,nt
COCC1CCCN(Cc2ccc3c(c2)CN(C(=O)c2cnn(C(C)C)c2)CCO3)C1 (configuration not stated),3%,-10%
CCN(c1ccccc1)S(=O)(=O)c1ccc(C(=O)NC2CCN(Cc3ccccc3)CC2)cc1,?,?
CC(c1ccccn1)N(C)C(=O)c1ccc2nc(Cc3ccccc3F)oc2c1 (configuration not stated),-5%,-6%
CCN1C(=O)[C@H]2[C@H]3CN=C(SCc4ccc(C(=O)OC)cc4)N3[C@@](Cc3ccccc3)(C(=O)OC)[C@H]2C1=O,-2%,-22%
CN(C)c1ccc(C2N3CC4(C)CN2CC(C)(C3)C4O)cc1 (configuration not stated),-11%,3%

# Retrieved by structure from above:
SMILES,Vaccinia Venus,VACV mCherry inh
C[C@H](NC(=O)c1ncn(Cc2ccccc2)c1C(=O)N[C@@H](C)c1ccccc1)c1ccccc1,-22%,-30%
O=C(NC(NC(=S)Nc1ccccc1O)C(Cl)(Cl)Cl)c1ccco1 (configuration not stated),-11%,-15%

# Quoted from the listing:
# COc1ccc(C2NC(c3ccc(OC)c(OC)c3OC)C(C)C(=O)C2C)c(OC)c1OC (configuration not stated) in VACV mCherry inh → -15%
# CCOCCn1ccc2c(OCC(=O)Nc3cc(OC)ccc3OC)cccc2c1=O in Vaccinia Venus → -12%
# CN(C)c1ccc(C2N3CC4(C)CN2CC(C)(C3)C4O)cc1 (configuration not stated) in VACV mCherry inh → 3%
# CC(CNc1ccc([N+](=O)[O-])c2cccnc12)Nc1c([N+](=O)[O-])cc(C(F)(F)F)cc1[N+](=O)[O-] (configuration not stated) in VACV mCherry inh → -14%

# Additional records follow:
SMILES,Vaccinia Venus,VACV mCherry inh
COc1ccc(C(=O)Nc2nnc(-c3ccccc3)o2)cc1OC,-10%,nt
COCCN(CCOC)C(=O)CCn1c(=O)oc2ccccc21,-9%,-10%
COc1ccc(N2CC(C(=O)Nc3nnc(Cc4ccccc4)s3)CC2=O)cc1 (configuration not stated),12%,-6%
Cc1ccc(C2C(C(=O)c3cccs3)=C(O)C(=O)N2c2nnc(C)s2)cc1 (configuration not stated),-14%,-17%
Cc1ccc(OCCN2CCC2(C)C(=O)NCc2cccc3ccccc23)cc1 (configuration not stated),-9%,i
COC(=O)[C@]12CCCCC=C1N(CCc1ccc(OC)c(OC)c1)C(=O)[C@H](CC(=O)NCc1ccc(OC)c(OC)c1)C2,-10%,-7%
CCOC(=O)c1ccc(NC(C)=O)c([N+](=O)[O-])c1,-5%[7.34 µM],-11%[7.34 µM]
CC(=O)Nc1ccc(NC(=O)C2CC(=O)N(C(C)C)C2)cc1 (configuration not stated),-6%,i
C/C(=N\NC(=O)c1n[nH]c2c1CCC2)c1ccco1,0%,i
CCOC(=O)c1sc2nc(CC(=O)OC)nc(N(C)CCc3ccccn3)c2c1C,-7%,-3%
CCOc1cc(/C=N/NC(=O)c2cccc(S(=O)(=O)N3CCOCC3)c2)ccc1OCC(=O)N(C)C,6%,-2%
COC(=O)C1CCN(c2cnccn2)CC1,-2%,i
C=CCn1c(C)cc(-c2csc(NC(=O)C3=COCCO3)n2)c1C,-7%,-14%
O=C(/C=C/c1ccco1)c1ccc(NC(=O)C23CC4CC(CC(C4)C2)C3)cc1,-3%,-15%
CC(=Cc1ccccc1)C(=O)c1ccccc1,-6%,i
C[C@@H]1CC[C@@]2(NC1)O[C@H]1C[C@H]3[C@@H]4CC=C5C[C@@H](O)CC[C@]5(C)[C@H]4CC[C@]3(C)[C@H]1[C@@H]2C,0%,-5%
CCN(CC(=O)Nc1ccc2c(c1)OCCO2)C(=O)/C=C/c1ccc(OC)cc1OC,-19%,-9%
COc1ccc(NC(=O)C(C)Oc2ccc(/C(C)=N\O)cc2)cc1 (configuration not stated),-16%,i
Cc1ccc(NC(c2ccc(Cl)cc2)c2nnc(-c3cccc(F)c3)o2)cc1C (configuration not stated),-9%,3%
CNC(=O)C[C@H]1C(=O)N(CCc2ccccc2)C[C@@H]1Cc1ccccc1,-6%,i
Cc1ccc2c(CC(=O)NCC3COc4ccccc4O3)coc2c1 (configuration not stated),-2%,nt
CCOC(=O)C1CCCN(C(=O)c2cc(S(=O)(=O)N3CCCCC3)c[nH]2)C1 (configuration not stated),-8%,-28%
N#Cc1cn(Cc2ccccc2)c2ccccc12,-4%,-12%
CCOC(=O)c1c(C)n(S(=O)(=O)c2ccc(C)cc2)c2ccc(O)c(C(=O)O)c12,-2%,i
Cc1ccc(C(=O)NC2CCCCC2)cc1,-26%,-21%

# Molecules listed so far that contain a cyano group, in the order listed:
SMILES,Vaccinia Venus,VACV mCherry inh
N#Cc1nc(Cc2cccc3ccccc23)oc1N1CCC(C(N)=O)CC1,?,nt
N#Cc1cn(Cc2ccccc2)c2ccccc12,-4%,-12%

# Later entries.
SMILES,Vaccinia Venus,VACV mCherry inh
CCCCCNC(=O)C(CCc1ccccc1)n1c(=O)c(-c2ccccc2)nc2ccccc21 (configuration not stated),-7%,?
COc1ccc(CC(=O)NC(C)c2nnc(SCC(=O)c3ccc(OC)cc3)n2C)cc1 (configuration not stated),0%,3%
CN(C)c1ccc(C=C2SC(=S)N(Cc3ccco3)C2=O)cc1,356%[activator],-10%
COCCNC(=O)c1cnc2sc(N3CCC(C)CC3)nn2c1=O,-5%,-1%
COc1ccc(NS(=O)(=O)c2c(F)cc(F)c(Cl)c2F)cc1S(=O)(=O)N1CCCCC1,5.6µM*,3.5µM*
COc1ccc(-c2csc3nc(-c4ccc(F)cc4)oc(=O)c23)cc1OC,-4%,-5%
CCCOc1ccc(C(=O)Nc2nonc2-c2ccc(OCC)cc2)cc1,-16%,-7%
S=c1[nH]nc(COc2ccc3c(c2)OCO3)n1-c1ccccc1,-14%,nt
CN(C)S(=O)(=O)N1CCc2ccc(NC(=O)c3ccccc3Cl)cc2C1,-12%,i
O=C(Nc1ccc(F)cc1F)N1CCc2c(sc3c2CCCC3)C1c1ccc(F)cc1 (configuration not stated),2%,-18%
CCN1CCc2c(sc(NC(=S)NC(=O)c3ccc(Cl)cc3)c2C(N)=O)C1,-8%,-19%
COc1ccc(-c2ccc(C(=O)Nc3cccc(F)c3)c3occc23)c(C)c1,-15%,7%
O=C(c1cc(COc2ccc(F)cc2Cl)on1)N1CCN(C2CCCC2)CC1,-16%,-2%
CC(=O)c1ccc(Nc2cc(C)nc3nc(Cc4ccc(Cl)cc4)nn23)cc1,-13%,-15%
Cc1ccc(OCCC(=O)NNC(=O)c2cc(C)oc2C)cc1,-14%,-18%
Oc1cccc(/C=N/N2CCCCC2)c1O,-16%,0%
CCOc1ccccc1NC(=O)c1cc(S(=O)(=O)N2CCOCC2)ccc1C,-2%,-5%
COC(=O)c1nc(N2CCN(S(=O)(=O)c3ccc(C)cc3)CC2)c2ccccc2n1,-14%,i
CNC(=O)Cc1csc2ccc(Cl)cc12,-14%,nt
N#Cc1ccc(/C=N/N=C(N)N)cc1,-7%,-11%
N#C[C@H]1C2OC2c2ccccc2N1C(=O)c1ccccc1 (some centres not stated),4%,1%
Cc1cccc(C)c1-n1nnnc1C1c2ccccc2C(=O)N1CCOc1ccccc1 (configuration not stated),1%,26%
O=C(/C=C/c1ccccc1)n1cnnc1SC/C=C/c1ccccc1,-11%,-15%
Nn1c(SCC(=O)Nc2cccnc2Cl)nnc1-c1ccccc1,-9%,-12%
COc1ccc(CCNc2ncnc3sc(C(=O)N4CCCCC4)c(C)c23)cc1OC,-20%,-23%

# Entries of single compounds from above. Order of screens: Vaccinia Venus | VACV mCherry inh
# COc1ccc(CC(=O)NC(C)c2nnc(SCC(=O)c3ccc(OC)cc3)n2C)cc1 (configuration not stated) in the list: 0% | 3%
# O=C(/C=C/c1ccccc1)n1cnnc1SC/C=C/c1ccccc1 in the list: -11% | -15%
# CCN1CCc2c(sc(NC(=S)NC(=O)c3ccc(Cl)cc3)c2C(N)=O)C1 in the list: -8% | -19%

# (continued)
SMILES,Vaccinia Venus,VACV mCherry inh
Cc1ccc(-n2nnnc2SCC(=O)NNC(=O)c2ccco2)cc1C,-6%,-18%
O=C(Nc1nnc(C2CC2)s1)C1Cc2ccccc2CN1S(=O)(=O)c1ccccc1F (configuration not stated),-20%,i
CCOC(=O)COc1cccc2c(=O)n(CC(=O)NCc3ccc4c(c3)OCO4)ccc12,-12%,7%
O=C(COC(=O)c1ccc(O)cc1)Nc1ccc(Cl)cc1C(=O)c1ccccc1,-6%,i
COc1cc(C/C=C/c2ccccc2)c(OC)cc1O,-17%,i
COc1ccccc1OCCCCN1CCN(c2ccccc2OC)CC1,-10%,-13%
C=CCN(CC=C)C(=S)NC(=O)c1ccc(OC)cc1,?,?
COC(=O)c1c(-c2ccccc2)csc1NC1=NS(=O)(=O)c2ccccc21,-5%,-5%
O=C1CC(c2nc3ccccc3n2CCCOc2ccccc2)CN1c1ccc(F)cc1 (configuration not stated),-10%,4%
CCOC(=O)c1c(NC(=O)C(=O)N/N=C/c2ccccc2OC)sc2c1CCCCC2,-5%,-11%
O=C(C1CCN(S(=O)(=O)c2cccc3cccnc23)CC1)N1CCN(c2ccccn2)CC1,-6%,-20%
Cn1cnnc1SCC(=O)NC1CCCc2ccccc21 (configuration not stated),-2%,3%
O=C(NCC1CCN(Cc2ccccc2F)CC1)Nc1cccc(Br)c1,-20%,-25%
CN1CCN(C(=O)/C(=C/c2ccco2)NC(=O)c2ccccc2)CC1,9%,-12%
COc1ccccc1C(=O)Nc1c(C(=O)Nc2ccc(C)cc2)oc2ccccc12,1%,2%
CNC(=S)NC1CC2CCCC(C1)N2CC(C)C (configuration not stated),-1%,-14%
O=C(C[n+]1csc2ccccc21)c1ccccc1,-13%,-6%
Cc1cccc(C(=O)Nc2ccc(-c3nc4cc(C(C)C)ccc4o3)cc2)c1,-29%,-30%
Cc1cccc(C(=O)Nc2ccc(N3CCN(C(=O)c4ccco4)CC3)cc2)c1,-9%,-25%
Cc1ccc(C)c(N(CC(=O)NCc2ccco2)C(=O)CNS(=O)(=O)c2ccccc2)c1,-9%,-4%
COC(=O)c1cc(-c2ccc(S(=O)(=O)N3CCCC3)cc2)c(C(F)(F)F)s1,3%,i
Cc1cccc(C)c1NC(=O)C(c1ccc(-c2ccccc2)cc1)n1c(=O)c(-c2cc3ccccc3[nH]2)nc2ccccc21 (configuration not stated),-11%,-15%
O=C(NCc1cccs1)c1ccc2c(c1)N(Cc1ccccc1Cl)C(=O)c1ccccc1S2,-30%,-34%
Cc1ccc(C(=O)NC(=O)CSc2nncn2C)cc1,10%,-11%
CC(=O)c1c(C)[nH]c(C(=O)OCn2nnc3ccccc3c2=O)c1C,-18%,-25%
# The list continues:
SMILES,Vaccinia Venus,VACV mCherry inh
Cc1cccc(-c2nc3scc(CCNS(=O)(=O)c4c(C)noc4C)n3n2)c1,-13%,-13%
c1ccc(CN2CCC(Nc3ncnc4sccc34)CC2)cc1,-20%,-30%
C=CCn1c(SCC(=O)NCCCC)nc2scc(-c3ccco3)c2c1=O,-13%,-6%
Cc1cccc(Cn2cc3c(=O)n(CC(=O)Nc4c(C)cccc4C)nc-3c3cc(F)ccc32)c1,1%,7%
O=C(NCCCN1CCOCC1)c1ccc2nc(Cc3ccccc3F)oc2c1,-21%,-8%
COc1cccc(NC(=O)CN(C)C(=O)c2c(C)noc2C)c1,-1%,6%
COc1cccc(NC(=O)N2CCN(c3ccc(C(F)(F)F)cn3)CC2)c1,-1%,nt
Nc1nnc(CC(=O)N/N=C/c2cc([N+](=O)[O-])cc(Br)c2O)s1,11%,i
CCCCc1c(O)nc(SCC(=O)NCC2CCCO2)[nH]c1=O (configuration not stated),-1%,nt
